# gsp antagonist = antagonizes gsp, the McCune-Albright syndrome mutation | gsp-mutant cells, cAMP HTRF, 30 min; control for the full effect not named in the record | Potency, µM (doses to about 76.9 µM), without a hit: at the highest dose activity change, negative = inhibition, actives largely listed as inhibitors | 340,000 compounds, 0.4% hits | AID 624288; active = falling curve of any shape with a large fitted effect; inconclusive = falling curve, mostly with a smaller effect; inactive = flat or rising curve; cell line not stated here;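 further: intracellular cAMP measured with PDE inhibitor Ro 20-1724 present during compound exposure; potency means the concentration at half of the fitted maximal effect; on the % scale 0 is the no-effect control and ±100 the full control effect; nearly all actives have a fitted effect of over 65% in size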
#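 Cells in G418 medium, seeded 16-24 h, 37C; buffer exchange to DPBS + 1 mM CaCl2, 0.5 mM MgCl2, 0.05% BSA; cpds in DMSO + […] (300 uM stock), 30 min 37C; HTRF cAMP detection.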
# Menin-MLL FL inh = inhibitors of human menin-MLL interaction, wild-type MLL peptide; Fluorescence polarization, fluorescein-MLL peptide displacement from menin; FP activity change, % at 61.4 µM; 290,000 tested, under 10 active; inconclusive = falling polarisation curve, or a change in total fluorescence; inactive = total fluorescence flat and polarisation flat or rising; no compound was filed as active; the % refers to the polarisation; negative = inhibition;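 further: % of control where 0% means no effect; inhibitors lower the polarisation; unlabelled MLL peptide was the positive control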
# gsp agonist = agonists of gsp mutant (McCune-Albright syndrome); gsp mutant cells, cAMP HTRF, 30 min; control for the full effect not named in the record; Potency, µM (doses to about 76.9 µM), without a hit: at the top dose activation (cAMP increase), hits mostly activators; 340,000 compounds, 0.13% hits; AID 624287; active = well fitted activation curve with a large enough effect; inconclusive = small, poorly fitted or top-dose-only effect, or another doubt; inactive = no such curve, though single readings can be large or run the other way; cell line not stated here;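 further: phosphodiesterase inhibitor Ro 20-1724 added with compounds to block cAMP breakdown; potency means the concentration at half of the fitted maximal effect; nearly all actives have a fitted effect of over 60% in size; about a fifth of the inactives were tested at one dose only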
#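 Cells stably selected in G418 were plated at 2000/well, grown 16-24 hr, then given compounds in DMSO with the PDE inhibitor […] (300 uM solution added) for 30 min at 37C; cAMP was read by HTRF.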
# D2 PAM = human D2 receptor positive allosteric modulation; P14416; DiscoveRx D2 beta-arrestin cells, luminescence, 90 min; 100% = 57 uM dopamine signal; potentiation, % (concentration not given with the values); 360,000 compounds, 0.23% hits; AID 624464; active = potentiation of 50% or more; inconclusive = 30% to 50%; inactive = 30% or less;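 further: tested on top of an EC20 dose of dopamine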
# Target sequence (P14416 whole entry, looked up): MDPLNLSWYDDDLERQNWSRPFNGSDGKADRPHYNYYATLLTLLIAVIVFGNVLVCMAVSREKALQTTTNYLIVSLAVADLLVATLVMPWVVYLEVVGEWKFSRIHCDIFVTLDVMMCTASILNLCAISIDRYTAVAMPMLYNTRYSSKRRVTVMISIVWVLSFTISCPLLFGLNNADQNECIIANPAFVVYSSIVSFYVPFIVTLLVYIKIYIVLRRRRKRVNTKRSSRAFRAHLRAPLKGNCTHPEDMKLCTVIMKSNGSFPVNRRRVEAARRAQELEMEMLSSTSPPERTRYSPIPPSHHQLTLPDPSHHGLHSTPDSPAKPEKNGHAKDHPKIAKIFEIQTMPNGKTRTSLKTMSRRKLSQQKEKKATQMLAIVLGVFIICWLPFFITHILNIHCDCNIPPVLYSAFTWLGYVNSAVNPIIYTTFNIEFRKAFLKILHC
#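 PathHunter D2 cells, attached overnight at 37 deg C, received compound in DMSO plus dopamine at EC20 (50 nM final) for 90 min at 37 deg C. Beta-arrestin recruitment was read as luminescence after 1 h with detection reagent at ambient temperature.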
# TRPV1 PAM = potentiators of human vanilloid receptor 1 (TRPV1); Q8NER1; TRPV1-expressing cells, Fluo-8 calcium influx, capsaicin EC20 potentiation; host cell line not named in the record; control for the full effect not named in the record; potentiation, % at 8.33 µM; 320,000 compounds, 0.02% hits; active means potentiation above 80%; inconclusive means 30% to 80%; inactive means below 30%; further: 0% is about no effect
#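 TRPV1-expressing cells were cultured overnight at 35.5C and loaded with Fluo-8 calcium dye for 40 to 90 min at room temperature. After a 10 s baseline, compound was added and calcium influx was read kinetically for 3 min (ex 480/em 520 nm).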
# Sfp inh = inhibitors of Bacillus subtilis Sfp phosphopantetheinyl transferase; Q9F4F7; Biochemical Sfp PPTase activity, qHTS; Potency, µM, for the others: max response, negative = inhibition, actives largely listed as inhibitors; 310,000 compounds, 3.5% hits; AID 1490; active means well fitted inhibition curve with a large enough effect; inconclusive means small, poorly fitted or top-dose-only effect, or another doubt; inactive means no such curve, though single readings can be large or run the other way;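 further: the enzyme is Sfp with the accession as filed and its product quenches rhodamine fluorescence; potency means the concentration at half of the fitted maximal effect; 0% = enzyme reaction without inhibitor and -100% = no enzyme wells; top concentration of the series not given in the record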
#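 Compounds were incubated with enzyme (final 15 nM) for 15 min at room temperature before substrate addition started the reaction. Fluorescence at 525 nm excitation, 598 nm emission was recorded immediately and after 30 minutes.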
# ClpP mod = qHTS Assay for Activators of ClpP; purified B. subtilis ClpP, FRET peptide cleavage, 20 min; Potency, µM (highest dose often 57.5 µM), inactives show at the highest dose activity change, negative = active; AID 651965, 2013; 340,000 compounds, 1.9% hits; active = well fitted falling curve with a large enough effect; inconclusive = small, poorly fitted or top-dose-only effect; inactive = no such curve, though single readings can be large or run the other way; further: potency means the concentration at half of the fitted maximal effect; the source files actives as falling curves though it sought activators and does not explain the sign; nearly all actives have a fitted effect of over 65% in size; many hits overshoot -100%
# Target sequence (P80244 whole entry, looked up): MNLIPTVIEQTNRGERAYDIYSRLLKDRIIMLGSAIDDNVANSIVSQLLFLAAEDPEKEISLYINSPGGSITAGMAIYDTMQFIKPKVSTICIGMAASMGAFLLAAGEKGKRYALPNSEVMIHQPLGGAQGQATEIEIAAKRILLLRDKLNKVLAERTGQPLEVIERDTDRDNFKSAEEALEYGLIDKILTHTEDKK
#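 Purified B. subtilis ClpP, 10 microg/mL final in Tris/HCl pH8 with KCl, BSA, glycerol and Tween-20, cleaved an Abz/nitrotyrosine-quenched decapeptide. Fluorescence (ex 320, em 430) was read at 0 and 20 min at room temperature. Delta was normalized to 5.8 microM ADEP and DMSO/no-enzyme controls.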
# An asterisk follows results filed as active; ? = inconclusive; / = no result given; [ ] = another dose, or the depositor's remark.
compound,gsp antagonist,Menin-MLL FL inh,gsp agonist,D2 PAM,TRPV1 PAM,Sfp inh,ClpP mod
COc1ccc(NC(=S)N2CCN(C)CC2)cc1,4.2%,/,23.0%[15.4 µM],-7.0,/,/,/
COc1ccccc1NC(=O)C1CCN(c2ncccn2)CC1,3.8%,1.0,-2.2%,-8.7,1.5,-1.6%,?
Cc1ccc(C)c(S(=O)(=O)Nc2ccc(O)cc2)c1,7.6%,-5.1,3.5%,2.2,12.6,15.7%,-3.4%
NC(=O)C1CC(=O)N(c2ccc(OCc3ccc(Cl)cc3Cl)cc2)C1 (stereo not given),2.5%,1.6,?,-5.0,11.2,-10.9%,0.8%
COc1cc(OC)cc(C(=O)Nc2cccnc2)c1,9.0%,0.3,-22.4%,-2.8,19.8,16.1%,/
Cc1cc(-c2ccc(C(C)C)c(S(=O)(=O)NCc3ccco3)c2)on1,3.5%,3.2,21.7%,2.9,-6.2,-4.1%,-1.0%
S=c1[nH]nc(Cc2c[nH]c3ccccc23)o1,-14.0%,2.5,-6.6%,14.9,-11.7,-9.6%,-1.3%
CC(=O)c1c(C)[nH]c(C(=O)Nc2cc(C)cc(C)c2)c1C,-1.0%,-1.3,27.2%,-21.7,-1.4,4.2%,0.7%
COc1ccccc1NC(=S)N1C2CCC1CC(NC(=O)NC13CC4CC(CC(C4)C1)C3)C2 (stereo not given),-2.0%,-2.4,-4.8%,-2.6,4.3,0.3%,-1.3%
CC1=CCC2C(=O)N(c3cccc(C(=O)Nc4ccccc4Cl)c3)C(=O)C2C1 (stereo not given),-28.9%,-0.3,7.4%,-14.4,-6.4,9.7%,2.4%
COc1ccc(CN2CCCC(CO)(Cc3ccc(F)cc3F)C2)cc1 (stereo not given),10.0%,1.0,0.0%,-12.2,-7.4,3.5%,/
Cc1ccc(S(=O)(=O)N2CCN(C)CC2)cc1,2.4%,-4.6,-62.4%[inhibitor],0.4,0.4,11.1%,3.3%
COc1ccccc1C(=O)Oc1ccc(C(C)(C)C)cc1,0.2%,1.5,-21.6%,-19.1,?,-6.9%,1.2%
COc1ccccc1CN(C)C(=O)COC(=O)c1cc(C)oc1C,3.8%,/,1.4%[15.4 µM],2.6,2.1,/,/
CCn1nnnc1NC(=O)c1cc(OC)c(OC)c(OC)c1,18.9%,0.7,-6.0%[15.4 µM],10.8,-2.8,15.8%,/
Cc1nc(S/C(=C\c2ccc(-c3ccc(C(=O)O)c(Cl)c3)o2)C(=O)O)n[nH]1,-5.4%,?,33.0%,-11.4,-6.8,6.31µM*,-2.9%
Cc1cc(C)cc(N(CC(=O)NCCSc2ccccn2)S(=O)(=O)c2ccccc2)c1,-21.5%,0.0,15.9%,6.7,6.4,-8.9%,3.8%
O=C(COc1ccc(Br)cc1)Nc1ccc([N+](=O)[O-])cn1,1.2%,-0.4,13.8%,-15.3,1.8,-21.2%,1.1%
COc1ccc(OC(=O)Nc2ccc([N+](=O)[O-])cc2OC)cc1,1.3%,-10.9,-16.0%,-32.9,-7.3,-19.6%,1.8%
COC(=O)c1ccc(NC(=S)NC2CC2)cc1,4.7%,-3.3,?,-3.8,7.1,2.4%,-2.4%
COC(=O)c1sc(N)c(C(=O)OC)c1COC(=O)CNS(=O)(=O)c1cccc(C#N)c1,-3.8%,4.2,1.7%,-13.7,7.8,13.2%,-8.3%
CCC(=O)c1ccc(OCC(=O)OCC(=O)c2cc(C)n(CC3CCCO3)c2C)cc1 (stereo not given),-5.7%,/,-33.5%[inhibitor],10.6,-8.0,/,-0.7%
CCOC(=O)CSc1nc2c(c(=O)n(C)c(=O)n2C)n1Cc1ccccc1F,3.2%,0.9,?,1.0,/,0.5%,0.4%
C#CCOCCOCCOCCNc1nc(N2CCN(C(=O)CCCCCCCCCCNC(=O)[C@H](CCCCN)n3cc(C[C@@H](C)CC)nn3)CC2)nc(N2CCN(C(=O)CCCCCCCCCCNC(=O)[C@H](CCCCN)n3cc(C[C@@H](C)CC)nn3)CC2)n1,-21.7%,/,/,-2.2,/,/,1.8%
COCCNC(=O)C(c1ccco1)N(Cc1ccc(OC)cc1)C(=O)Cn1nnc2ccccc21 (stereo not given),2.8%,-1.7,-10.3%[15.4 µM],-5.3,-3.8,9.8%,-4.9%

# Further entries
compound,gsp antagonist,Menin-MLL FL inh,gsp agonist,D2 PAM,TRPV1 PAM,Sfp inh,ClpP mod
O=[N+]([O-])c1ccc(C(O)C23CN4CN(CN(C4)C2)C3)cc1 (stereo not given),2.4%,-0.3,-15.2%,-4.0,-15.5,17.9%,-1.6%
O=C(Nc1cccc(C(=O)O)c1)/C(=C\c1ccccc1)NC(=O)c1ccccc1Cl,4.8%,2.7,-35.5%,4.9,-4.5,5.1%,0.5%
Cc1nn(CC(=O)NNC(=O)c2ccc(Br)cc2)c(C)c1[N+](=O)[O-],5.0%,/,?,-2.0,13.9,/,0.1%
CCOC(=O)C1CCCN(C(=O)c2cc3ccccc3cc2OC)C1 (stereo not given),10.4%,/,21.9%[15.4 µM],3.3,/,/,/
COc1ccc(-n2c(=S)[nH]c3cc(C(=O)NCCCN4CCCC4=O)ccc3c2=O)c(OC)c1,7.8%,3.2,0.2%,-21.6,1.4,-9.2%,3.4%
Cc1cc(N(CCO)CCO)ccc1C(c1ccc(N(CCO)CCO)cc1C)c1ccccc1Cl,?,0.7,-2.6%,-22.4,5.7,?,-2.1%
CC(Oc1ccc(F)cc1)c1nnc(SCC(=O)N(c2ccccc2)C2CCS(=O)(=O)C2)o1 (stereo not given),1.9%,/,?,-13.1,-2.0,/,-3.5%
Cc1ccc(C2C(C#N)=C(N)N(c3cccnc3)C3=C2C(=O)CCC3)c(C)c1 (stereo not given),2.1%,-5.5,16.7%,-6.1,1.4,6.0%,/
Cc1ccc(N2CCN(C(=O)CCc3nc4ccccc4[nH]3)CC2)c(C)c1,-24.8%,1.3,-0.7%,-21.0,-13.0,-14.7%,-3.1%
Cc1ccc(NC(=O)CN2C(=O)N/C(=C/c3cc(C)n(-c4cccc(C(=O)O)c4)c3C)C2=O)cc1,5.8%,?,-37.3%[inhibitor],-1.4,0.7,?,/
C[C@@H](CO)NC(=O)c1[nH]cnc1C(=O)Nc1ccc(CNC(=O)OC(C)(C)C)cc1,/,/,-26.0%,7.2,/,/,0.6%
CC(C)(C)c1ccc(C(=O)NCCn2c(N)c(C#N)c3nc4ccccc4nc32)cc1,-7.3%,0.0,9.0%[15.4 µM],-6.6,3.7,15.5%,/
O=C(COc1ccccc1)NC(=S)Nc1ccc2c(c1)Cc1ccccc1-2,4.5%,/,8.8%,-3.9,-2.0,12.9%,-1.7%
COC(=O)c1c(NC(=O)c2ccco2)sc2c1CCC2,-19.3%,4.2,-3.1%,5.4,-4.9,-3.8%,173.9%
CCCCc1cc2c(cc1NC(=O)CN1CCCCC1)OCCO2,3.0%,0.3,-1.4%[15.4 µM],-8.9,-11.4,-0.3%,-0.7%
Cn1cnnc1SCc1ccccc1Br,12.4%,0.3,13.9%,-0.2,-5.6,9.3%,-0.9%
Cc1c(Cl)cccc1NC(=S)NCC1COc2ccccc2O1 (stereo not given),-7.4%,-2.7,2.2%,-7.9,2.5,-1.7%,/
Cc1ccc(NC(=O)C2C(=O)N(C)c3ccccc32)cc1 (stereo not given),7.8%,/,26.8%[15.4 µM],-10.2,12.2,-16.8%,/
Cn1c2ccccc2c(=O)c2cc(C#Cc3ccccn3)ccc21,3.5%,0.8,/,-5.1,5.2,-25.1%,3.9%
Cc1cccnc1NC(=O)c1cccc(S(=O)(=O)NCc2ccccc2)c1,9.6%,/,17.5%[15.4 µM],-0.7,-6.2,/,/
O=Cc1c(N2CCN(c3ccccc3)CC2)nc2ccccn2c1=O,3.3%,-19.9,0.3%,-5.2,11.2,9.5%,1.8%
Cn1c(NC2CCCCC2)c(N=O)c(=O)n(C)c1=O,-15.6%,2.3,15.1%[15.4 µM],-18.8,7.0,14.7%,/
FCCCOc1ccc(/C=N/OCc2c(Cl)cccc2Cl)cc1,-0.1%,-2.4,-13.2%,-0.9,-0.1,-9.5%,-4.1%

# A different layout for 4 compounds above.
structure: Cc1ccc(NC(=O)CN2C(=O)N/C(=C/c3cc(C)n(-c4cccc(C(=O)O)c4)c3C)C2=O)cc1
  gsp antagonist: 5.8%
  Menin-MLL FL inh: ?
  gsp agonist: -37.3%[inhibitor]
  D2 PAM: -1.4
  TRPV1 PAM: 0.7
  Sfp inh: ?
  ClpP mod: /
structure: C[C@@H](CO)NC(=O)c1[nH]cnc1C(=O)Nc1ccc(CNC(=O)OC(C)(C)C)cc1
  gsp antagonist: /
  Menin-MLL FL inh: /
  gsp agonist: -26.0%
  D2 PAM: 7.2
  TRPV1 PAM: /
  Sfp inh: /
  ClpP mod: 0.6%
structure: CC(C)(C)c1ccc(C(=O)NCCn2c(N)c(C#N)c3nc4ccccc4nc32)cc1
  gsp antagonist: -7.3%
  Menin-MLL FL inh: 0.0
  gsp agonist: 9.0%[15.4 µM]
  D2 PAM: -6.6
  TRPV1 PAM: 3.7
  Sfp inh: 15.5%
  ClpP mod: /
structure: O=C(COc1ccccc1)NC(=S)Nc1ccc2c(c1)Cc1ccccc1-2
  gsp antagonist: 4.5%
  Menin-MLL FL inh: /
  gsp agonist: 8.8%
  D2 PAM: -3.9
  TRPV1 PAM: -2.0
  Sfp inh: 12.9%
  ClpP mod: -1.7%
